Rango-impB inh – Rango-importin beta binding inhibition; Q14974; Rango CFP/YFP FRET sensor + importin beta, 45 min; Potency, µM (titrated, usually from 92.2 µM), inactives show top-dose inhibition of complex formation; actives 0.031% (n = 340,000); active = rising FRET ratio curve, often small or poorly fitted; inconclusive = mostly compound fluorescence or quenching in the first reads; inactive = flat curves in all reads;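 further: potency means the concentration at half of the fitted maximal effect; 0% = DMSO wells and 100% = buffer wells lacking importin beta; nearly all actives have a fitted effect of over 15% in size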
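FRET biosensor Rango (snurportin 1 IBB between N-terminal EYFP and C-terminal Cerulean), 50 nM in PBS/1 mM DTT/0.02% Tween-20/0.1% BSA, preincubated 5 min RT with compound; 0.125 microM importin beta added, 45 min RT, CFP/YFP FRET ratio read.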
miR-21 FLuc – raises the signal of a miR-21 reporter | 340,000 tested, under 10 active | Potency, µM (doses to about 38.3 µM), for inactives: top-dose reporter change, positive = more light | HeLa miR-21 FLuc reporter, luciferase, 48 h; active = well fitted rising curve with a large enough effect; inconclusive = small, poorly fitted or top-dose-only effect; inactive = no such curve, though single readings can be large or run the other way;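 further: % of control where 0% means no effect; miR-21 action dims this reporter so a rising signal means less miR-21 action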
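Using DMEM plus 10% FBS, HeLa miR-21-FLuc cells are incubated with test compounds (final up to about 40uM) for 48 hours; firefly luciferase signal is then imaged following reagent-mediated lysis.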
GLA inh pH 4.5 – alpha-galactosidase A (human) inhibition, pH 4.5; activity change, negative = inhibition, % at 105 µM; AID 1467; 230,000 tested, under 10 active; purified enzyme, 4-MU-alpha-Gal fluorescence, pH 4.5; inconclusive = small, poorly fitted or top-dose-only inhibition, or a rising curve; inactive = flat fitted curve, though single readings scatter; no compound was filed as active;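 further: 0% = full activity with enzyme and -100% = basal without enzyme; dose as in the result columns while the protocol names 77 µM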
Target sequence (P06280 whole entry, looked up): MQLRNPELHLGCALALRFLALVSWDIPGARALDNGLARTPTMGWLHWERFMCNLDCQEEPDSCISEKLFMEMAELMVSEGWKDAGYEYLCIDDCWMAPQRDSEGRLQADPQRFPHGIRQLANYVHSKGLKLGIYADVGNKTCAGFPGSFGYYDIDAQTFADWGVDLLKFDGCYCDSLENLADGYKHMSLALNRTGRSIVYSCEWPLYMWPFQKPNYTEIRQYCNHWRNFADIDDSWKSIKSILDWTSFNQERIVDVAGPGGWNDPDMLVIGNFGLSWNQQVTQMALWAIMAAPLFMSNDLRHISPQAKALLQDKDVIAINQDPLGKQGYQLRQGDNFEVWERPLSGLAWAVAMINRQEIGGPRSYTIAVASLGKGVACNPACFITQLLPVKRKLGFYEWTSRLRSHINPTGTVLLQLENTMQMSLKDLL
Rango release inh – prevents RanGTP from dissociating the Rango-importin beta complex; AID 540253; Biochemical FRET Rango-importin beta, RanGTP-induced dissociation; actives 0.071% (n = 340,000); O95149+P62826; Potency, µM (doses to about 46.1 µM), for the others: at the top dose activity change, negative = inhibition; active means falling FRET ratio curve, often poorly fitted, with flat reads before Ran was added; inconclusive means other falling curves, or compound fluorescence or quenching; inactive means flat or rising ratio curve;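 further: potency means the concentration at half of the fitted maximal effect; % of control where 0% means no effect; nearly all actives have a fitted effect of over 45% in size; -100% = wells without RanGTP and RCC1; the record marks most hits as doubtful in a second field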
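Recombinant Rango FRET biosensor (EYFP–snurportin 1 IBB–cerulean CFP10) at 0.1 uM premixed with 0.25 uM importin beta in PBS, 1 mM DTT, 0.02% Tween-20, 0.1% BSA. Compound added 5 min; RanGTP-RCC1 (0.6 uM Ran, 2 mM GTP, 0.2 uM RCC1) then triggers release, read at 45 min.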
Starred values were filed as active, the others as inactive; ? = inconclusive; · = not tested or not shown; & = joins results of further samples. This is a subset; rates above refer to the full screens.

miR-21 FLuc,GLA inh pH 4.5,Rango release inh,Rango-impB inh,structure
-52%,·,-13%,0.6%,C/C(=N\Nc1nccnc1Cl)c1ccc(O)cc1
4%,13,1%,-2.0%,COc1cc(OC)cc(N(C(=O)CNC(=O)c2cccs2)C(C(=O)NCC2CCCO2)c2ccc(OC)c(OC)c2)c1 (stereo not given)
·,·,3%,6.1%,C[C@]12C(=O)N(c3ccc(C(F)(F)F)cc3)C(=O)N1[C@H]1c3ccccc3OC[C@@H]1[C@H]2c1ccccc1
-9%,-3,-6%,-9.5%,CCC(=O)c1ccc(NC(C)=O)cc1O
-1%,-4,15%,-0.6%,C#CCSc1nnnn1-c1ccc(OCC)cc1
2%,·,-8%,4.1%,O=C(NCc1ccncc1)C1CCCN1S(=O)(=O)c1ccc(Cl)cc1 (stereo not given)
-43%,-1,?,?,CSc1nnc(NC(=O)c2ccc(S(=O)(=O)N(C)C)cc2)s1
6%,0,-5%,2.5%,O=C(CSc1nc2ccccc2[nH]1)Nc1cccc(S(=O)(=O)N2CCOCC2)c1
0%,·,?,?,N=c1c(C(=O)NCC2CCCO2)cc2c(=O)n3ccccc3nc2n1Cc1ccco1 (stereo not given)
-13%,-7,-10%,4.3%,O=C(Cn1nc(C(F)F)cc1C(F)F)NNC(=S)Nc1ccc([N+](=O)[O-])cc1
-1%,2,-11%,0.3%,COc1cc(NC(=S)N2CCN(C(=O)C3CCCO3)CC2)c(OC)cc1Cl (stereo not given)
23%,-10,8%,-2.3%,COCCCN1C(=O)c2[nH]nc(-c3ccccc3O)c2C1c1ccc(Cl)cc1 (stereo not given)
-7%,-1,-2%,-3.2%,CCOCCCNC(=O)C(c1ccc(Cl)cc1)N1CCN(c2ccccc2)CC1 (stereo not given)
2%,-3,1%,2.4%,Cc1ccc(S(=O)(=O)N2CCC(C(=O)C3C(=O)CC(C)(C)CC3=O)CC2)cc1
-9%,-4,-3%,-2.2%,CCCn1c(SC(C(=O)Nc2cccc(OC)c2)c2ccccc2)nc2ccccc2c1=O (stereo not given)
-63%,9,1%,-2.8%,CCOC(=O)c1cnc(SCCc2ccccc2)nc1N
-5%,-9,2%,2.0%,CCC(Oc1ccccc1)C(=O)Nc1ccc(S(=O)(=O)N2CCOCC2)cc1 (stereo not given)
-42%,8,25%,0.5%,CC1CN(C(=O)Nc2ccc3c(c2)OCO3)CC(C)O1 (stereo not given)
-39%,·,1%,?,COc1ccc2cc(C(=O)NCCc3ccccc3)[nH]c2c1
9%,-13,13%,2.3%,COc1nc(/C=C/N(C)C)c([N+](=O)[O-])c(OC)n1
3%,·,3%,1.5%,CC(C)Cc1nnc(NC(=O)CCC(=O)N2CCN(Cc3ccc(F)cc3)CC2)s1
0%,-1,6%,-2.7%,Clc1ccc(CSc2nnc(CNc3cccc(Cl)c3)o2)cc1
6%,11,13%,-2.4%,O=C(CNCc1ccccn1)Nc1cc(S(=O)(=O)N2CCCCC2)ccc1Cl
-24%,-1,-5%,-0.8%,Cc1csc(NC(=O)CS(=O)(=O)c2ccccc2)n1
0%,-7,-6%,-4.0%,CCOC(=O)c1c(NC(=O)CSc2cn(CC)c3ccccc23)sc2c1CCC2

Later entries
miR-21 FLuc,GLA inh pH 4.5,Rango release inh,Rango-impB inh,structure
-2%,4,-9%,1.3%,O=C(NCc1cccnc1)c1ccccc1CCc1ccccc1
1%,8,6%,-0.1%,Cc1cccc(OCc2n[nH]c(=S)n2Cc2ccccc2)c1
-22%,8,-4%,-3.1%,Cc1cc(C)n2cc(CSc3ccc(Br)cc3)nc2n1
-6%,·,?,-3.3%,COc1ccc(NC(=O)CSc2nnnn2-c2ccc(F)cc2)cc1
3%,·,1%,0.6%,Cc1ccc(S(=O)(=O)N2CCc3cc4c(cc3C2C)OCCCO4)cc1 (stereo not given)
-7%,2,-2%,-1.4%,CCCCNC(=O)NS(=O)(=O)c1ccc(C(=O)OC)o1
-2%,2,9%,-0.1%,CCOC(=O)C1(CCc2ccccc2)CCN(Cc2nccn2CC)CC1
-3%,-3,-7%,2.8%,Cn1c(=O)c2c(n(Cc3ccccc3)c1=O)NC(=O)C2CC(=O)O (stereo not given)
-9%,-8,9%,2.5%,COC(=O)C1=CN(c2cccc(C)c2)C=C(C(=O)OC)C1c1cc(OC)c(O)c([N+](=O)[O-])c1
-44%,3,-8%,-3.2%,CN(C)S(=O)(=O)Nc1ccc2c(c1)Cc1ccccc1-2
·,·,-10%,-2.3%,COc1ccc(NC(=O)CN2C(=O)NC(C)(C3CC3)C2=O)c(OC)c1 (stereo not given)
-29%,-6,28%,0.5%,COc1ccc(NC2=Nc3ccccc3CC2)cc1
·,·,-4%,-5.0%,O=C(C1CCN(S(=O)(=O)c2cccc3cccnc23)CC1)N1CCN(Cc2ccccc2)CC1
-1%,·,?,0.6%,CCn1c(SCC(=O)Nc2cccc(C)c2)nc2ccccc2c1=O
1%,·,9%,?,COc1cc(/C=N/NC2=NS(=O)(=O)c3ccccc32)ccc1OC(C)=O
-3%,-7,-11%,-3.9%,COC(=O)C(CC(C)C)NC(=O)c1ccc(F)cc1 (stereo not given)
12%,·,-26%,?,Cc1ccc(N(C)S(=O)(=O)c2c(C)noc2/C=C/N(C)C)cc1
-9%,-3,9%,-0.4%,CCCCC1NC(C(=O)O)CS1 (stereo not given)
-5%,-7,-11%,?,CC1=CC2=NC(=O)/C(=C\c3cc(C)n(-c4cccc(Cl)c4)c3C)C(=N)N2O1
5%,·,-12%,-2.6%,CC(OC(=O)CCCNC(=O)c1ccc(Cl)cc1)C(=O)N(C)Cc1ccccc1 (stereo not given)
-3%,7,8%,0.0%,CC1CCCCC1NC(=O)c1ccc(S(=O)(=O)N2CCCC2)cc1 (stereo not given)
·,·,?,?,CC(=O)N1CCc2c(sc(NC(=O)C3CCCN3S(=O)(=O)c3cccs3)c2C(N)=O)C1 (stereo not given)
-4%,3,-11%,-0.3%,O=C(NC1(C(F)(F)F)NC(=O)N(c2ccccc2)C1=O)c1cccs1 (stereo not given)
-1%,15,?,?,CCOC(=O)c1cc2c(=O)n3cccc(C)c3nc2n(Cc2ccco2)c1=NC(=O)c1ccccc1
6%,-7,24%,-0.1%,Cc1ccc(Nc2c([N+](=O)[O-])cc(C(=O)N3CC(=O)Nc4ccccc43)cc2[N+](=O)[O-])c(C)c1

Additional results follow:
miR-21 FLuc,GLA inh pH 4.5,Rango release inh,Rango-impB inh,structure
·,·,-6%,?,CC(Sc1ncccn1)C(=O)NC1(C#N)CCCCC1 (stereo not given)
-10%,6,-7%,-1.2%,Cc1ccc(SC[C@H](Cc2ccccc2)N2CCN(CC(C)C)CCC2=O)cc1
-1%,2,19%,-1.2%,COc1ccc(Cl)cc1-c1n[nH]c(=S)n1C
-44%,-11,-5%,2.1%,CN(C)/C=C1\Cc2ccccc2C1=O
-12%,·,-17%,3.1%,O=C(NCC(=O)N1CCN(Cc2ccccc2)CC1)c1ccc(Br)o1
-16%,2,13%,-1.8%,COc1ccc(CNC(=S)Nc2ccc(OC)cc2)cc1
-8%,-1,2%,-3.5%,COc1cc(CNCCN(C)C)c(Br)cc1OCC(=O)NCc1ccccc1
0%,·,-4%,3.5%,CC[C@@](C)(NS(=O)(=O)OCC(Cl)(Cl)Cl)c1ccccc1
-53%,-4,1%,-4.9%,CCC(=O)NCCc1nc2cc(NC(=O)c3ccccc3OC)ccc2n1C
0%,1,44%,?,O=C(c1ccco1)N1CCN=C1SCc1ccc(F)cc1
-7%,4,7%,-2.6%,COc1cccc(-c2nnc(SCC(=O)Nc3ccc(S(N)(=O)=O)cc3)n2C)c1
-1%,?,10%,1.9%,O=S(=O)(NCc1ccccc1)c1ccc(S(=O)(=O)N(Cc2ccccn2)C2CCCC2)cc1
0%&4%,·,8%,-2.0%,Cc1c(NC(=O)c2cc(-c3ccc(F)cc3)on2)c(=O)n(-c2ccccc2)n1C
-1%,0,2%,-0.2%,CCOc1ccccc1OCC(=O)Nc1ccc(Cl)cc1Cl
-8%,9,3%,0.4%,COc1ccc(OC)c(C2CC(=O)C3=C(C2)NC(=O)CC3c2ccc(O)c(OC)c2)c1 (stereo not given)
0%,2,-13%,6.0%,CCO[C@@H]1OC(C(=O)N2CCOCC2)=C[C@H](c2ccccc2)[C@H]1CCCO
-35%,·,0%,3.2%,CCN(CC1CCCO1)C(=O)c1cc(COc2ccccc2SC)on1 (stereo not given)
1%,-6,20%,5.0%,Cn1c(=O)c2c(nc(Oc3ccc4c(c3)OCO4)n2Cc2ccc(F)cc2)n(C)c1=O
-3%,·,7%,1.4%,COc1ccc(NC(=O)CN2C(=O)NC3(CCCC3)C2=O)c(OC)c1
14%,-5,0%,3.1%,COc1cc(CN2CCC(C(=O)N3CCN(c4ccccc4F)CC3)CC2)ccc1O
-4%,-3,18%,0.8%,Cc1cccc(N(Cc2ccccc2F)S(C)(=O)=O)c1
·,·,25%,2.6%,COc1cc(C(=O)N(C)CCOc2ccccc2)ccc1OCC(=O)Nc1cccc(C(F)(F)F)c1
8%,·,-6%,0.1%,COc1ccccc1N1CCN(S(=O)(=O)c2ccc3c(c2)NC(=O)CS3)CC1
-4%,-1,-7%,-2.5%,CN(C)C(=O)C1(c2ccccc2)CCN(S(=O)(=O)c2ccccc2)CC1
-3%,-7,-7%,-1.2%,CC(C)CCNC(=O)NC(=O)COc1ncnc2sccc12

Fetched one by one from above (six):
miR-21 FLuc,GLA inh pH 4.5,Rango release inh,Rango-impB inh,structure
-12%,·,-17%,3.1%,O=C(NCC(=O)N1CCN(Cc2ccccc2)CC1)c1ccc(Br)o1
·,·,25%,2.6%,COc1cc(C(=O)N(C)CCOc2ccccc2)ccc1OCC(=O)Nc1cccc(C(F)(F)F)c1
-8%,-1,2%,-3.5%,COc1cc(CNCCN(C)C)c(Br)cc1OCC(=O)NCc1ccccc1
-8%,9,3%,0.4%,COc1ccc(OC)c(C2CC(=O)C3=C(C2)NC(=O)CC3c2ccc(O)c(OC)c2)c1 (stereo not given)
-4%,-3,18%,0.8%,Cc1cccc(N(Cc2ccccc2F)S(C)(=O)=O)c1
-1%,2,19%,-1.2%,COc1ccc(Cl)cc1-c1n[nH]c(=S)n1C

3 of the entries above in order of the Rango release inh value, falling:
structure | Rango release inh
CC1CN(C(=O)Nc2ccc3c(c2)OCO3)CC(C)O1 (stereo not given) | 25%
O=S(=O)(NCc1ccccc1)c1ccc(S(=O)(=O)N(Cc2ccccn2)C2CCCC2)cc1 | 10%
CCCCC1NC(C(=O)O)CS1 (stereo not given) | 9%

New compounds follow
miR-21 FLuc,GLA inh pH 4.5,Rango release inh,Rango-impB inh,structure
-6%,-2,3%,-0.2%,COC(=O)/C(=C/c1ccccc1)NC(=O)c1ccco1
8%,·,12%,4.7%,COc1cc(C(=S)N2CCN(C(c3ccccc3)c3ccccc3)CC2)cc(OC)c1O
20%,6,11%,5.4%,COc1cc(OC)cc(C(=O)Nc2c(C)nn(-c3ccccc3)c2C)c1
-15%,-4,3%,-3.2%,O=C(NCCOc1ccccc1Cl)C(=O)c1c[nH]c2ccccc12
-6%,-4,13%,-2.5%,CC1CCN(C(=O)c2ccc(SCc3ccccc3F)c([N+](=O)[O-])c2)CC1
-8%,·,3%,-3.5%,NC(=O)c1cc(C(=O)Cc2ccccc2)c[nH]1
-1%,·,12%,-1.2%,Cc1ccccc1C(=O)N1CCCC(N2CCN(Cc3ccc4c(c3)OCO4)CC2)C1 (stereo not given)
0%,·,-7%,-0.2%,CCN1CCN(C(CNS(=O)(=O)c2ccc(C)cc2)c2cccnc2)CC1 (stereo not given)
-2%,-1,-3%,-3.0%,C=C(C)[C@@H]1CCC2(C(=O)O)CC[C@]3(C)[C@H](CC[C@@H]4[C@@]5(C)CCC(=O)C(C)(C)[C@@H]5CC[C@]43C)[C@@H]12 (stereo not given in full)
-12%,-2,?,?,O=C(O)c1cc(-c2ccc(/C=C3\NC(=O)N(c4ccccc4)C3=O)o2)ccc1Cl
-2%,3,-13%,-5.0%,O=C(CNCCO)Nc1ccc(F)c(Cl)c1
·,·,5%,1.0%,CC(=O)c1ccc(S(=O)(=O)NCC(=O)NC(c2nc3ccccc3[nH]2)C(C)C)cc1 (stereo not given)
